From PubChem BioAssay
UUG fidelity = modulators of yeast start codon fidelity, primary screen, whole organism, S. cerevisiae, single point, plate reader; 350,000 tested, 0.13% active; AID 602363, 2012; S. cerevisiae UUG-firefly luciferase reporter, luminescence/redox ratio; activity score, % at 18.7 µM;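 active means replicate mean at a twofold rise or more, about +100% in these data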;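 further: firefly luciferase made from a UUG start codon reports start codon fidelity; reporter light over untreated wells divided by growth signal over untreated wells; some hits fall short of that in this replicate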
An asterisk follows results filed as active. These rows are one share of the data; the hit share may differ from the screen's.

The opening 3 records, to show the layout:
SMILES,UUG fidelity
O=C(Nc1ccccc1F)N1CCCCN2[C@H](C1)[C@H](c1ccc(/C=C/c3ccccc3)cc1)[C@@H]2CO,0
CN1c2ccc(-c3cccc(F)c3)cc2[C@H]2[C@H](CCN2S(=O)(=O)c2cccc(F)c2)[C@H]1CO,13
COc1ccccc1S(=O)(=O)N1CC[C@@H]2[C@@H](CO)Nc3ccc(-c4ccccc4)cc3[C@@H]21,-5

Main list, from the start:
SMILES,UUG fidelity
O=C(Nc1ccccc1F)N1CCCCN2[C@H](C1)[C@H](c1ccc(/C=C/c3ccccc3)cc1)[C@@H]2CO,0
CN1c2ccc(-c3cccc(F)c3)cc2[C@H]2[C@H](CCN2S(=O)(=O)c2cccc(F)c2)[C@H]1CO,13
COc1ccccc1S(=O)(=O)N1CC[C@@H]2[C@@H](CO)Nc3ccc(-c4ccccc4)cc3[C@@H]21,-5
C[C@@H]1CN([C@H](C)CO)C(=O)c2c(c3ccccc3n2C)-c2ccccc2CO[C@@H]1CN(C)C(=O)c1ccc(F)cc1,2
C[C@@H](O)C#Cc1ccc([C@H]2[C@H]3CN(S(=O)(=O)c4ccccc4)CCCCN3[C@H]2CO)cc1,8
N#Cc1cccc(-c2ccc3c(c2)[C@@H]2[C@@H](CCN2Cc2ccc4c(c2)OCO4)[C@@H](CO)N3)c1,10
CC(C)NC(=O)Nc1cccc2c1O[C@@H](CN(C)C(=O)NC(C)C)[C@H](C)CN([C@H](C)CO)C2=O,-8
CN1C(=O)c2cc(NC(=O)c3ccccc3)ccc2OC[C@@H]2O[C@H](CC(=O)NC3CCCC3)CC[C@@H]21,2
CN1c2ccc(C#Cc3ccc(F)cc3)cc2[C@@H]2[C@@H](CCN2S(=O)(=O)c2ccccc2F)[C@H]1CO,-3
CCCNC(=O)N1C[C@@H]2[C@H](c3ccccc31)[C@@H](CO)N2Cc1ccc(OC)cc1,13
CNC[C@H]1Oc2ccc(NC(=O)Nc3ccccc3)cc2CC(=O)N([C@@H](C)CO)C[C@@H]1C,-9
COc1ccccc1-c1ccc([C@@H]2[C@@H](CO)N3CCCCN(S(=O)(=O)c4cn(C)cn4)C[C@@H]23)cc1,16
C/C=C/c1ccc([C@@H]2[C@H](CO)N(C(=O)COC)[C@H]2CNC(=O)CC)cc1,-3
C[C@@H]1CN([C@H](C)CO)C(=O)c2cccc(NC(=O)C3CCCCC3)c2O[C@H]1CN(C)Cc1ccc(Oc2ccccc2)cc1,4
C[C@@H]1CN([C@H](C)CO)C(=O)c2ccccc2-c2ccccc2CO[C@H]1CN(C)C(=O)c1ccccc1,9
C[C@H](CO)N1C[C@H](C)[C@@H](CN(C)C(=O)Nc2ccc3c(c2)OCO3)Oc2ccc(NS(=O)(=O)c3ccc(Cl)cc3)cc2C1=O,11
O=C(Nc1ccc(F)cc1)N1[C@H](CO)[C@H]2c3ccccc3NC[C@H]21,-6
O=S(=O)(c1ccc(F)cc1)N1C[C@H]2[C@@H](c3ccccc31)[C@H](CO)N2Cc1ccc2c(c1)OCO2,2
O=C(Cc1ccccc1)N1CC[C@@H]2[C@H]1c1cc(C#Cc3cccc(F)c3)ccc1N[C@@H]2CO,-12
O=C(C[C@@H]1CC[C@H]2[C@@H](COC[C@@H](O)CN2Cc2cc(F)ccc2F)O1)NCc1ccccc1,4
O=C(C[C@H]1CC[C@@H]2[C@H](COC[C@H](O)CN2Cc2cccc(C(F)(F)F)c2)O1)NCc1ccncc1,-3
CCCNC(=O)N1C[C@@H]2[C@H](c3ccccc31)[C@H](CO)N2Cc1cc(F)ccc1F,-14
COc1cccc(-c2ccc3c(c2)[C@@H]2[C@@H](CCN2S(=O)(=O)c2ccccc2OC)[C@H](CO)N3C)c1,-16
Cc1ccc(S(=O)(=O)N(C)C[C@@H]2Oc3c(NC(=O)C4CC4)cccc3C(=O)N([C@H](C)CO)C[C@H]2C)cc1,-7
O=C(Nc1ccccc1F)N1C[C@H]2[C@@H](c3ccccc31)[C@H](CO)N2C(=O)Cc1cccnc1,-6
CCC(=O)Nc1ccc2c(c1)C(=O)N(C)C[C@H](OC)[C@@H](C)CN(C(=O)Cc1ccccn1)[C@H](C)CO2,2
CO[C@@H]1CN(C)C(=O)c2ccc(NC(=O)C3CC3)cc2OC[C@H](C)N(CCC(F)(F)F)C[C@H]1C,-8
CO[C@H]1CN(C)C(=O)c2cc(NS(C)(=O)=O)ccc2OC[C@@H](C)N(C(=O)c2ccc3c(c2)OCO3)C[C@@H]1C,-12
O=C(Nc1cc(F)ccc1F)N1CCCCN2[C@H](C1)[C@@H](c1ccc(-c3ccccc3)cc1)[C@@H]2CO,-1
CN1CCN(C(=O)C[C@H]2CC[C@@H]3[C@H](COC[C@H](O)CN3S(=O)(=O)c3cccc(Cl)c3)O2)CC1,-6

The list goes on.
SMILES,UUG fidelity
CC(=O)N(C)C[C@H]1[C@H](c2ccccc2)[C@@H](CO)N1C(=O)C1CCC1,5
Cc1noc(C)c1S(=O)(=O)Nc1cccc2c1O[C@H](CN(C)Cc1ccc(Cl)c(Cl)c1)[C@H](C)CN([C@H](C)CO)C2=O,11
C[C@H]1CN([C@@H](C)CO)C(=O)c2cccc(NS(=O)(=O)c3cn(C)cn3)c2O[C@@H]1CN(C)Cc1ccc(Oc2ccccc2)cc1,-1
C[C@@H]1CN([C@@H](C)CO)C(=O)c2cc(NC(=O)C3CCCCC3)ccc2O[C@@H]1CN(C)S(=O)(=O)c1ccc(F)cc1,18
O=C(C[C@H]1CC[C@H]2[C@@H](COC[C@@H](O)CN2Cc2ccc(F)cc2)O1)NCc1ccccc1Cl,-5
CCC(=O)N1[C@@H]2c3ccc(C4=CCCC4)c(=O)n3C[C@@H]2[C@@H](CO)[C@@H]1C(=O)NC1CCC1,11
C[C@H](O)C#Cc1ccc([C@@H]2[C@@H](CO)N3CCCCN(CC4CC4)C[C@@H]23)cc1,16
O=C(c1ccccc1F)N1C[C@@H]2[C@H](c3ccccc31)[C@H](CO)N2C(=O)Nc1ccccc1,-11
C[C@@H]1CN([C@@H](C)CO)C(=O)Cc2cc(NC(=O)CCC(F)(F)F)ccc2O[C@@H]1CN(C)CC1CCCCC1,-1
COc1ccc(C(=O)N2C[C@H]3[C@@H](c4ccccc42)[C@@H](CO)N3Cc2ccccc2)cc1,8
C[C@H]1CN([C@@H](C)CO)C(=O)c2cccc(NC(=O)c3cnccn3)c2O[C@@H]1CN(C)C(=O)Nc1ccc(C(F)(F)F)cc1,-9
CCC(=O)N1CC[C@@H]2[C@@H](CO)Nc3ccc(C#Cc4cccnc4)cc3[C@@H]21,2
O=C(C[C@H]1CC[C@H]2[C@@H](COC[C@@H](O)CN2C(=O)c2ccccc2)O1)NC1Cc2ccccc2C1,1
CO[C@H]1CN(C)C(=O)c2cc(NC(=O)Nc3ccccc3F)ccc2OC[C@@H](C)N(CC2CC2)C[C@@H]1C,11
CN(C)C(=O)c1cccc(-c2ccc([C@@H]3[C@@H](CO)N4CCCCN(CC5CCOCC5)C[C@H]34)cc2)c1,2
C[C@H]1CN([C@@H](C)CO)C(=O)c2cc(NC(=O)Cc3ccccc3)ccc2O[C@@H]1CN(C)S(=O)(=O)c1ccc(F)cc1,-1
C[C@H]1CN([C@@H](C)CO)C(=O)c2cccc(NC(=O)Nc3cccc4ccccc34)c2O[C@H]1CN(C)CC1CCCCC1,6
COc1cccc(-c2ccc3c(c2)[C@@H]2[C@@H](CCN2C(=O)Nc2ccccc2OC)[C@@H](CO)N3C)c1,-15
O=C(NC1CCC1)[C@@H]1[C@@H](CO)[C@@H]2Cn3c(ccc(-c4ccccc4)c3=O)[C@H]1N2,-4
C[C@@H]1CN([C@@H](C)CO)C(=O)c2cccc(NS(=O)(=O)c3cn(C)cn3)c2O[C@@H]1CN(C)Cc1ccc(Oc2ccccc2)cc1,0
CC(C)[C@@H](C)NC(=O)N(C)C[C@@H]1OCc2ccccc2-c2c(n(C)c3ccccc23)C(=O)N([C@H](C)CO)C[C@@H]1C,10
C[C@H]1CN([C@@H](C)CO)C(=O)Cc2cc(NC(=O)c3ccncc3)ccc2O[C@@H]1CN(C)C,-18
O=C(C[C@@H]1CC[C@@H]2[C@H](COC[C@@H](O)CN2Cc2ccncc2)O1)NCC1CC1,-12
O=C(C[C@H]1CC[C@H]2[C@@H](COC[C@@H](O)CN2C(=O)c2ccccc2F)O1)NCc1ccc(Cl)cc1,5
OC[C@@H]1[C@@H](c2ccc(C#CC3CC3)cc2)[C@H]2CN(CCC(F)(F)F)CCCCN12,-3
C[C@@H]1CN([C@@H](C)CO)C(=O)c2cccc(NS(C)(=O)=O)c2O[C@@H]1CN(C)C(=O)Nc1ccc(F)cc1,-4
COCC(=O)Nc1ccc2c(c1)C(=O)N(C)C[C@H](OC)[C@@H](C)CN(C(=O)Cc1ccccn1)[C@H](C)CO2,-5
O=C(Nc1ccccc1F)N1C[C@H]2[C@@H](c3ccccc31)[C@H](CO)N2C(=O)C1CCOCC1,35
O=C(C[C@@H]1CC[C@@H]2[C@H](COC[C@H](O)CN2S(=O)(=O)c2ccc(F)cc2)O1)NCCN1CCCCC1,-8
COc1ccc(S(=O)(=O)Nc2ccc3c(c2)C(=O)N([C@@H](C)CO)C[C@H](C)[C@@H](CN(C)Cc2ccncc2)O3)cc1,-15

6 of these compounds in a different format:
UUG fidelity	SMILES
-12	O=C(C[C@@H]1CC[C@@H]2[C@H](COC[C@@H](O)CN2Cc2ccncc2)O1)NCC1CC1
-6	O=C(Nc1ccc(F)cc1)N1[C@H](CO)[C@H]2c3ccccc3NC[C@H]21
11	CO[C@H]1CN(C)C(=O)c2cc(NC(=O)Nc3ccccc3F)ccc2OC[C@@H](C)N(CC2CC2)C[C@@H]1C
-5	COCC(=O)Nc1ccc2c(c1)C(=O)N(C)C[C@H](OC)[C@@H](C)CN(C(=O)Cc1ccccn1)[C@H](C)CO2
2	C[C@@H]1CN([C@H](C)CO)C(=O)c2c(c3ccccc3n2C)-c2ccccc2CO[C@@H]1CN(C)C(=O)c1ccc(F)cc1
2	CCC(=O)N1CC[C@@H]2[C@@H](CO)Nc3ccc(C#Cc4cccnc4)cc3[C@@H]21

Next compounds:
SMILES,UUG fidelity
COc1ccccc1CNC(=O)C[C@H]1CC[C@H]2[C@@H](COC[C@H](O)CN2C(=O)Nc2ccc(Cl)cc2)O1,8
O=C(NC[C@@H]1N[C@@H](CO)[C@@H]1c1ccc(-c2ccccc2F)cc1)c1ccccn1,-15
CCC(=O)N1C[C@@H](C)[C@@H](OC)CN(C)C(=O)c2ccc(NC(=O)c3ccc(F)cc3)cc2OC[C@H]1C,8
O=C(C[C@H]1CC[C@@H]2[C@H](COC[C@H](O)CN2C(=O)c2ccccc2)O1)N1CCc2ccccc2C1,20
COc1ccc(NC(=O)Nc2ccc3c(c2)CC(=O)N([C@@H](C)CO)C[C@@H](C)[C@@H](CN(C)C(=O)Nc2ccc(F)cc2)O3)cc1,4
O=C(Nc1cccc(Cl)c1)N1C[C@@H]2[C@H](c3ccccc31)[C@@H](CO)N2C(=O)C1CCCC1,17
CO[C@@H]1CN(C)C(=O)c2ccc(NC(=O)C3CC3)cc2OC[C@H](C)N(C(=O)CN(C)C)C[C@H]1C,-5
O=C(Cc1ccccc1)N1C[C@@H]2[C@H](c3ccccc31)[C@@H](CO)N2C(=O)C1CCOCC1,52
CC(C)NC(=O)Nc1ccc2c(c1)CC(=O)N([C@H](C)CO)C[C@@H](C)[C@H](CN(C)Cc1ccc(C(F)(F)F)cc1)O2,18
C[C@H]1CN([C@@H](C)CO)C(=O)c2cc(NC(=O)Nc3ccccc3)ccc2O[C@H]1CN(C)Cc1ccc(C(=O)O)cc1,-7
C[C@H]1CN([C@@H](C)CO)C(=O)c2cc(NC(=O)CCC(F)(F)F)ccc2O[C@@H]1CN(C)Cc1ccc(-c2ccccc2)cc1,8
CNC[C@@H]1Oc2ccc(NC(=O)Nc3ccccc3)cc2CC(=O)N([C@H](C)CO)C[C@@H]1C,-9
CO[C@@H]1CN(C)C(=O)c2cc(NC(C)=O)ccc2OC[C@H](C)N(C(=O)c2ccccc2F)C[C@H]1C,-8
CO[C@@H]1CN(C)C(=O)c2ccc(NC(=O)C3CC3)cc2OC[C@@H](C)N(C(=O)CN(C)C)C[C@H]1C,-3
C[C@@H]1CN([C@@H](C)CO)C(=O)Cc2cc(NC(=O)Cc3cn(C)c4ccccc34)ccc2O[C@@H]1CN(C)C,-4
CN(C[C@H]1N[C@@H](CO)[C@H]1c1ccc(-c2cccc(F)c2)cc1)C(=O)C1CCC1,-16
C[C@@H]1CN([C@H](C)CO)C(=O)Cc2cc(NS(C)(=O)=O)ccc2O[C@H]1CN(C)C(=O)Nc1ccccc1,-11
O=C(Nc1cccc(Cl)c1)N1C[C@@H]2[C@H](c3ccccc31)[C@H](CO)N2CC1CCCCC1,-9
O=S(=O)(c1ccccc1)N1CCCCN2[C@H](C1)[C@@H](c1ccc(-c3ccccc3)cc1)[C@@H]2CO,15
CCC(=O)NC[C@@H]1[C@@H](c2ccc(-c3ccccc3)cc2)[C@H](CO)N1C(=O)C1CC1,-10
O=C(Cc1ccccc1)N1CC[C@@H]2[C@H]1c1cc(-c3ccc(F)cc3)ccc1N[C@@H]2CO,-6
COCC(=O)Nc1ccc2c(c1)C(=O)N(C)C[C@@H](OC)[C@H](C)CN(Cc1ccccc1F)[C@H](C)CO2,3
C[C@@H]1CN([C@@H](C)CO)C(=O)Cc2cc(NC(=O)Cc3ccccc3)ccc2O[C@@H]1CN(C)C(=O)Nc1ccc(F)cc1,-8
O=C(c1ccccc1F)N1C[C@H]2[C@@H](c3ccccc31)[C@@H](CO)N2C(=O)c1cccnc1,-3
